Screening data: PubChem BioAssay, National Center for Advancing Translational Sciences (NCATS)
Six1-Eya2 inh – Six1/Eya2 interaction inhibition; activity change, % (test concentration not listed); Q15475+O00167; AlphaScreen GST-Six1/His-Eya2 binding, biochemical; stronger effect = lower value; control for the full effect not named in the record; 360,000 tested, 0.56% active; in the data active = activity change below about -65%; inconclusive = about -30% to -65%; inactive = above about -30%; note: compound concentration not given in the record
Target sequence (O00167 whole entry, looked up): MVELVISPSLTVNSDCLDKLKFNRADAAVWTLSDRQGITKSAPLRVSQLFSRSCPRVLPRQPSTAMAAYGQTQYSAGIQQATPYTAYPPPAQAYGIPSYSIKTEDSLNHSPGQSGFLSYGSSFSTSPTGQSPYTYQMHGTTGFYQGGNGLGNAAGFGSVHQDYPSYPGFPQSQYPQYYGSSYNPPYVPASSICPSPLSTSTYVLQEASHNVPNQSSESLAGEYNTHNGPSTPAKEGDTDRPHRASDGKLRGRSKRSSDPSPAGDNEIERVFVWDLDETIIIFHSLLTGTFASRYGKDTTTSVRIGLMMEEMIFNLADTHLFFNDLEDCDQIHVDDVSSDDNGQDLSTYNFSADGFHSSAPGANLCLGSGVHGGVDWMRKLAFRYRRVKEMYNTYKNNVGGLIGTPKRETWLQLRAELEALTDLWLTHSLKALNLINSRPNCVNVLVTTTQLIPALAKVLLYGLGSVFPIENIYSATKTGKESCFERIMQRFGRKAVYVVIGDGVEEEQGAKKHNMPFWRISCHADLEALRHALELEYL
Target sequence (Q15475 whole entry, looked up): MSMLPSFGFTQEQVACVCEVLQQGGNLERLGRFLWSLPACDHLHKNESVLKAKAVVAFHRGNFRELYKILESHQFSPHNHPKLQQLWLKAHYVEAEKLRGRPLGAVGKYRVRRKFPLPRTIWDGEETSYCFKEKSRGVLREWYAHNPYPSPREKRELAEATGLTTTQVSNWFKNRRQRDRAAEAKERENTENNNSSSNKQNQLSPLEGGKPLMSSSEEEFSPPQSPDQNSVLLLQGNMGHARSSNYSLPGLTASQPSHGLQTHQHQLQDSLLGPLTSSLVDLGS
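AlphaScreen with GST-Six1 and His-Eya2 (5X mix: 250 nM and 500 nM), glutathione donor and nickel acceptor beads; buffer 50 mM Tris pH 8.0, 300 mM NaCl, 1 mM TCEP; 1 h at 37 C in the dark.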
CtBP-E1A blk – inhibitors of CtBP/E1A interaction; activity change, % (test concentration not listed); 340,000 tested, 0.49% active; AlphaScreen GST-E1A/His-CtBP binding, 1536-well; stronger effect = lower value; control for the full effect not named in the record; AID 651724; in the data active means activity change below about -65%; inconclusive means about -30% to -65%; inactive means above about -30%; note: compound concentration not given in the record
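Protein mix (5X: 125 nM each GST-E1A, His-CtBP) was incubated with pinned compound 2 h at 37 deg C in dark, in 50 mM Tris pH 8.0 buffer with 300 mM NaCl. Glutathione donor and nickel acceptor beads followed; AlphaScreen signal read after 1 h.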
Numbers without * were called inactive. % is set by controls: 0 for no effect and ±100 for the full control effect.

SMILES	Six1-Eya2 inh	CtBP-E1A blk
COc1ccc(OC)c(CN2C(=O)CSCC2(C)C(=O)Nc2c(C)cccc2C)c1 (stereo unspecified)	-1	1
CC1(c2nnnn2C2CCCCC2)CCC(=O)N1Cc1ccc2c(c1)OCO2 (stereo unspecified)	2	6
CCC(c1nc2ccccc2[nH]1)n1c(-c2ccc3ccccc3c2)nc2ccccc21 (stereo unspecified)	1	10
COc1ccc2c3c(n(C(=O)OC(C)(C)C)c2c1)C1CC=C(COC(C)=O)CN1CC3 (stereo unspecified)	-13	-1
COC(=O)[C@]12CCCCC=C1N(CCc1ccc(OC)c(OC)c1)C(=O)[C@H](CC(=O)NCc1cccs1)C2	-7	-4
CC(C)c1cn(CC[C@@H]2CC[C@@H](NC(=O)C3CCCCC3)[C@@H](CO)O2)nn1	0	0
Cc1ccc(CN2C(=O)CSCC2(C)C(=O)NCc2ccccc2)cc1 (stereo unspecified)	0	8
COC(=O)[C@]12CCCCC=C1N(Cc1ccc3c(c1)OCO3)C(=O)[C@H](CC(=O)N1CCN(C(=O)C3CC3)CC1)C2	3	2
O=C(NCC(F)(F)F)C1C(=O)Nc2ccccc2C(=O)N1C1CCCC1 (stereo unspecified)	-1	5
CCC(CC)C(C(=O)NCc1ccccc1)N1CCN(c2cccc(C)c2C)CC1 (stereo unspecified)	0	7
COc1ccc(-n2nnnc2C2(C)CCC(=O)N2Cc2ccccc2)cc1 (stereo unspecified)	4	1
COc1cccc(C(C(=O)NCc2ccccc2)N2CCN(c3ccccc3F)CC2)c1OC (stereo unspecified)	-6	3
CCOC(=O)[C@]12CCCC=C1N(Cc1ccccc1)C(=O)[C@H](CC(=O)NCc1ccccc1)C2	23	25
COC(=O)C[C@@H]1C=C[C@H](NC(=O)c2cnccn2)[C@@H](CO)O1	-1	6
COC(=O)[C@@]12C[C@@H](CC(=O)NCCC(C)C)C(=O)N(CCc3ccc(OC)c(OC)c3)C1=CCC(C)(C)C2	0	-15
Cn1cnc(CCNC(=O)C[C@H]2CC[C@@H]3[C@H](COC[C@H](O)CN3C(=O)C3CCCC3)O2)c1	-5	0
CCOC(=O)C1C(C)C(C(C)(C)C)N(S(=O)(=O)c2ccc(C)cc2)C1c1ccccc1 (stereo unspecified)	7	4
COC(=O)C[C@H]1CC[C@H](NC(=O)c2ccc(F)cc2)[C@@H](CO)O1	5	11
COC(=O)[C@@]12C[C@@H](CC(=O)NCCc3ccccc3OC)C(=O)N(Cc3ccco3)C1=CCC(C)(C)C2	-13	-7
COCC(=O)N[C@H]1C=C[C@@H](CC(=O)OC)O[C@@H]1CO	-6	7
Cc1cc2c(cc1C)-n1nnnc1C(N1CCN(CC(=O)N3CCCC3)CC1)C(=O)N2 (stereo unspecified)	2	10
COC(=O)/C=C1\OCc2c(F)cccc21	-4	-2
O=C(C[C@@H]1CC[C@@H]2[C@H](COC[C@H](O)CN2C(=O)Nc2ccc(F)cc2)O1)NCCc1ccncc1	7	0
O=C(NCc1ccccc1)C(c1cc2ccccc2o1)n1c(=O)c(-c2ccccc2)nc2ccccc21 (stereo unspecified)	-8	5
CC1(C(=O)Nc2ccc3c(c2)OCCO3)CSCC(=O)N1CC(F)(F)F (stereo unspecified)	4	4
CCCCCNC(=O)C(c1cc2ccccc2o1)n1c(=O)c(-c2ccccc2)nc2ccccc21 (stereo unspecified)	0	-10
COC(=O)C[C@@H]1C=C[C@H](NC(=O)Nc2ccc(OC)cc2)[C@@H](CO)O1	2	-1
Cc1cc(C)c2cc(C#N)c(NCCNC(=O)c3ccncc3)nc2c1	8	8
COC(=O)[C@@]12C[C@@H](CC(=O)NCC3CCCCC3)C(=O)N(CCc3ccc(OC)c(OC)c3)C1=CCC(C)(C)C2	-6	-15
Cc1ccc(S(=O)(=O)N2[C@H](CC(=O)c3ccccc3)OC[C@@H]2C(C)C)cc1	12	-23
CCCCCCCCN1C(=O)[C@H](CC(=O)NCC2CCCCC2)C[C@@]2(C(=O)OC)CC(C)(C)CC=C12	4	2
O=C(NCc1ccccc1)C1C(c2ccccc2)=Nc2ccccc2N1C(=O)c1cnccn1 (stereo unspecified)	-3	-18
CCNC(=O)C[C@@H]1CC[C@H]2[C@@H](COC[C@H](O)CN2C(=O)C2CC2)O1	-2	7
Cc1ccc(S(=O)(=O)N[C@H](CNCc2ccccc2)C(C)C)cc1	8	8
c1ccc(C[C@H]2COc3c4ccccc4nn32)cc1	-2	1
C=CCC(NC(=O)N(C)C)(C(=O)OC)C(C)O (stereo unspecified)	1	0
CC1(C(=O)NCc2ccccc2)CN(S(C)(=O)=O)CC(=O)N1C1CC1 (stereo unspecified)	4	10
CCCCCNC(=O)C(c1cccc2ccccc12)n1c(=O)c(-c2ccccc2)nc2ccccc21 (stereo unspecified)	6	-1
COC(=O)[C@@]12C[C@@H](CC(=O)NCc3ccc(OC)c(OC)c3)C(=O)N(Cc3cccc4ccccc34)C1=CCC(C)(C)C2	-8	-12
COC(=O)[C@@]12C[C@@H](CC(=O)NCc3ccc(OC)c(OC)c3)C(=O)N(CCc3ccc(OC)c(OC)c3)C1=CCC(C)(C)C2	-1	-4
Cc1cccc(N2CCN(C3C(=O)Nc4ccccc4-n4nnnc43)CC2)c1C (stereo unspecified)	0	-2
CCCNC(=O)N1C[C@H](O)COC[C@H]2O[C@@H](CC(=O)N[C@@H]3CCN(Cc4ccccc4)C3)CC[C@@H]21	6	-11
COC(=O)[C@@]12C[C@@H](CC(=O)NCc3ccccc3)C(=O)N(Cc3ccccc3)C1=CCC(C)(C)C2	-5	-1
CCOC(=O)C1=CC[C@@H](c2cccc(Br)c2)N(S(=O)(=O)c2ccc(F)cc2)[C@H]1c1cccc(Cl)c1	0	4
COC(=O)C[C@H]1CC[C@@H]2[C@H](COC[C@H](O)CN2S(=O)(=O)c2ccccc2OC)O1	5	4
CCCNC(=O)C[C@@H]1CC[C@H]2NC[C@H](O)COC[C@@H]2O1	-8	-1
N#Cc1cccc(C(=O)C(=O)N2CCC(c3ccccc3)CC2)c1	-4	1
COc1ccc(NC(=O)C(C2CC2)n2c(=O)c(-c3ccccc3)nc3ccccc32)cc1 (stereo unspecified)	3	0

Molecules listed so far that have a CF3 group:
SMILES	Six1-Eya2 inh	CtBP-E1A blk
O=C(NCC(F)(F)F)C1C(=O)Nc2ccccc2C(=O)N1C1CCCC1 (stereo unspecified)	-1	5
CC1(C(=O)Nc2ccc3c(c2)OCCO3)CSCC(=O)N1CC(F)(F)F (stereo unspecified)	4	4

Next section:
SMILES	Six1-Eya2 inh	CtBP-E1A blk
CCCCCCCCN1C(=O)[C@H](CC(=O)N2CCCC2)C[C@@]2(C(=O)OC)CC(C)(C)CC=C12	0	-5
O=C(NCc1cccc(C(F)(F)F)c1)C1C(=O)Nc2ccccc2C(=O)N1C1CCCC1 (stereo unspecified)	5	8
CCc1c(-c2ccc(OC)cc2)ncn1Cc1cccc(-c2ccccc2)c1	-13	-8
Cc1cccc(N2CCN(C(C(=O)NCc3ccccc3)c3ccc(C(F)(F)F)cc3)CC2)c1C (stereo unspecified)	1	-3
COC(=O)[C@]12CCCCC=C1N(CCc1ccc(OC)c(OC)c1)C(=O)[C@H](CC(=O)NCCc1ccccc1OC)C2	-23	-8
CCOC1=C2[C@@H](CN(S(=O)(=O)c3ccccc3C)[C@H]2c2ccc(Cl)cc2)[C@H]2C(=O)N(C3CCCCC3)C(=O)[C@H]2C1	-3	-5
Cc1ccccc1NC(=O)C1C(=O)Nc2ccccc2C(=O)N1Cc1ccccc1 (stereo unspecified)	-4	-1
COc1ccc(NC(=O)C(c2cccc3ccccc23)n2c(=O)c(-c3ccco3)nc3ccccc32)cc1 (stereo unspecified)	-4	-10
CCOC(=O)N1CCN(C(=O)C[C@@H]2C[C@@]3(C(=O)OC)CC(C)(C)CC=C3N(Cc3ccc4c(c3)OCO4)C2=O)CC1	-8	6
COC(=O)C1(C(=O)OC)c2cc3c(cc2CN(S(=O)(=O)c2ccc(C)cc2)C1CC(C)=O)OCO3 (stereo unspecified)	-4	-21
CC(C)(C)NC(=O)C(c1ccccc1F)n1c(=O)c(-c2ccccc2)nc2ccccc21 (stereo unspecified)	3	-12
Cc1cccc(C)c1NC(=O)C(c1cc2ccccc2o1)N1CCC(c2ccccc2)CC1 (stereo unspecified)	0	9
CCCCCCCCN1C(=O)[C@H](CC(=O)NCC2CCCCC2)C[C@@]2(C(=O)OCC)CCC=C12	-2	2
Cc1ccc(C)c(N2CCN(C3C(=O)Nc4ccccc4-n4nnnc43)CC2)c1 (stereo unspecified)	-7	-2
Oc1cccc(CN2CCN(c3ncc(Cc4ccccc4)cn3)CC2)c1	-10	3
COc1ccc(CN2C(=O)CN(S(C)(=O)=O)CC2(C)C(=O)NC(C)C)cc1 (stereo unspecified)	3	1
Cc1ccc(S(=O)(=O)Nc2ccc(F)c(F)c2O)cc1	0	8
COc1ccc(C(C(=O)NC2CCCCC2)n2c(=O)c(-c3cc4ccccc4[nH]3)nc3ccccc32)cc1 (stereo unspecified)	43	12
COC(=O)C[C@@H]1C=C[C@@H](NS(=O)(=O)c2ccccc2OC)[C@@H](CO)O1	6	-6
COC(=O)C[C@@H]1C=C[C@H](NC(=O)Nc2cc(F)ccc2F)[C@@H](CO)O1	11	0
COc1ccc(C2=Nc3ccccc3N(C(=O)c3ccc(C(F)(F)F)cc3)C2C(=O)NCc2ccccc2)cc1 (stereo unspecified)	0	-22
O=C(NC1CCCC1)C(C1CC1)n1c(-c2ccnc3ccccc23)nc2ccccc21 (stereo unspecified)	-6	0
COC(=O)[C@@]12C[C@@H](CC(=O)NCc3cccc4ccccc34)C(=O)N(Cc3ccco3)C1=CCC(C)(C)C2	-13	2
CCOC(=O)CC1(C)Sc2ccccc2N1S(=O)(=O)c1ccc(C)cc1 (stereo unspecified)	35	24
Nc1sccc1C(=O)NCc1ccccc1	0	-5
CCOc1cc(-c2ccccc2)nc2c1CN(S(=O)(=O)c1ccc(C)cc1)C(c1cccc(Cl)c1)C2 (stereo unspecified)	13	-3
CC(C(=O)NC1CCCC1)n1c(-c2ccccn2)nc2ccccc21 (stereo unspecified)	-21	-9
CC(C)NC(=O)C1C(c2ccc(C(F)(F)F)cc2)=Nc2ccccc2N1C(=O)c1ccccc1 (stereo unspecified)	-1	0
COC(=O)[C@]12CCCCC=C1N(Cc1ccc3c(c1)OCO3)C(=O)[C@H](CC(=O)NCc1ccccc1)C2	-15	1
COC(=O)C1=CN(c2ccc(Oc3ccccc3)cc2)C(N)=C(C#N)C1c1ccc(-c2ccccc2)cc1 (stereo unspecified)	16	-22
COc1ccc(CCc2nc3ccccc3n2C(CCc2ccccc2)c2nc3ccccc3[nH]2)cc1 (stereo unspecified)	-8	1

Structures shown so far that have fluorine, in the order listed:
SMILES	Six1-Eya2 inh	CtBP-E1A blk
O=C(NCC(F)(F)F)C1C(=O)Nc2ccccc2C(=O)N1C1CCCC1 (stereo unspecified)	-1	5
COc1cccc(C(C(=O)NCc2ccccc2)N2CCN(c3ccccc3F)CC2)c1OC (stereo unspecified)	-6	3
COC(=O)C[C@H]1CC[C@H](NC(=O)c2ccc(F)cc2)[C@@H](CO)O1	5	11
COC(=O)/C=C1\OCc2c(F)cccc21	-4	-2
O=C(C[C@@H]1CC[C@@H]2[C@H](COC[C@H](O)CN2C(=O)Nc2ccc(F)cc2)O1)NCCc1ccncc1	7	0
CC1(C(=O)Nc2ccc3c(c2)OCCO3)CSCC(=O)N1CC(F)(F)F (stereo unspecified)	4	4
CCOC(=O)C1=CC[C@@H](c2cccc(Br)c2)N(S(=O)(=O)c2ccc(F)cc2)[C@H]1c1cccc(Cl)c1	0	4
O=C(NCc1cccc(C(F)(F)F)c1)C1C(=O)Nc2ccccc2C(=O)N1C1CCCC1 (stereo unspecified)	5	8
Cc1cccc(N2CCN(C(C(=O)NCc3ccccc3)c3ccc(C(F)(F)F)cc3)CC2)c1C (stereo unspecified)	1	-3
CC(C)(C)NC(=O)C(c1ccccc1F)n1c(=O)c(-c2ccccc2)nc2ccccc21 (stereo unspecified)	3	-12
Cc1ccc(S(=O)(=O)Nc2ccc(F)c(F)c2O)cc1	0	8
COC(=O)C[C@@H]1C=C[C@H](NC(=O)Nc2cc(F)ccc2F)[C@@H](CO)O1	11	0
COc1ccc(C2=Nc3ccccc3N(C(=O)c3ccc(C(F)(F)F)cc3)C2C(=O)NCc2ccccc2)cc1 (stereo unspecified)	0	-22
CC(C)NC(=O)C1C(c2ccc(C(F)(F)F)cc2)=Nc2ccccc2N1C(=O)c1ccccc1 (stereo unspecified)	-1	0

Only part of the results is shown, so the mix of outcomes need not match the whole.
